# Screening data as filed in PubChem.
# AF4-AF9 inh: inhibitors of human MLL-AF4/AF9 interaction; P42568; AlphaScreen, biotin-AF4 peptide binding to FLAG-AF9; inhibition, % at 10 µM; 0.47% of 350,000 active; AID 651704;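 active means every replicate reaching a set inhibition limit, whatever the replicate mean, cut at about 25% in these data; inconclusive means mean inhibition reaches that limit but some replicates miss it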;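 further: 0% = plate neutral control median and 100% = total signal loss; the record names both 10 and 1 µM as test concentration; the first replicate is given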
# Calb FLC: C. albicans growth modulation with fluconazole. 0.57% of 300,000 active. C. albicans CaCi-2 (fluconazole-resistant clinical isolate) + fluconazole, Alamar Blue growth, 48 h. growth inhibition, % (concentration not given with the values);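 active means most replicates above 75%; inconclusive means exactly half above 75%; inactive means most below 75%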;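 further: all wells also contain fluconazole at 8 µg/ml as a sub-toxic cotreatment; 0% = median of DMSO wells and 100% = median of geldanamycin control wells; wells of about 8 µL received 7.5 nL stock; the first replicate is given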
# Bfl-1 A1 inh: inhibitors of the anti-apoptotic protein A1, read as caspase activation; MEF A1-2A-BIM cells, Caspase-Glo 3/7 luminescence, 3 h; percent of clofoctol response, vehicle zero; caspase activation, % (test concentration not listed); 0.066% of 330,000 active;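 active means over half of replicate activation scores above 10%, or exactly half above 10 with the replicate mean above 10; inconclusive means replicate mean below 10 yet half the replicates above 10; inactive means over half of replicates below 10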;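 further: wells of about 30 µL received 50 nL stock; many hits fall short of the cut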
# RanGTP-Impb inh: inhibitors of RanGTP-importin-beta interaction, primary screen, biochemical, FRET, CFP-Ran, YFP-importin-beta, homogeneous | cell-free CFP-Ran/YFP-importin-beta FRET ratio | inhibition, % (concentration not given with the values) | 1.1% of 300,000 active;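 active means most replicates above 15%; inconclusive means exactly half above 15%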;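 further: 0% = DMSO wells and 100% = Ran loaded with GDP instead of GTP; wells of about 40 µL received 100 nL stock; the first replicate is given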
# LANA-H2B inh: blocks KSHV LANA binding to histone H2A/H2B; AID 2629; inhibition, % (test concentration not listed); 0.6% of 320,000 active; cell-free LANA-H2A/H2B peptide, fluorescence polarization; in the data active means inhibition mostly above about 10%, no sharp cut-off; inactive means mostly below about 6.7%;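 further: stock transfer was 7.5 nL into about 10 µL; 0% = median of vehicle wells and 100% = median of positive control wells; one replicate is shown; the record names a cut of 25% in any replicate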
# Target sequence (Q9QR71 whole entry, looked up): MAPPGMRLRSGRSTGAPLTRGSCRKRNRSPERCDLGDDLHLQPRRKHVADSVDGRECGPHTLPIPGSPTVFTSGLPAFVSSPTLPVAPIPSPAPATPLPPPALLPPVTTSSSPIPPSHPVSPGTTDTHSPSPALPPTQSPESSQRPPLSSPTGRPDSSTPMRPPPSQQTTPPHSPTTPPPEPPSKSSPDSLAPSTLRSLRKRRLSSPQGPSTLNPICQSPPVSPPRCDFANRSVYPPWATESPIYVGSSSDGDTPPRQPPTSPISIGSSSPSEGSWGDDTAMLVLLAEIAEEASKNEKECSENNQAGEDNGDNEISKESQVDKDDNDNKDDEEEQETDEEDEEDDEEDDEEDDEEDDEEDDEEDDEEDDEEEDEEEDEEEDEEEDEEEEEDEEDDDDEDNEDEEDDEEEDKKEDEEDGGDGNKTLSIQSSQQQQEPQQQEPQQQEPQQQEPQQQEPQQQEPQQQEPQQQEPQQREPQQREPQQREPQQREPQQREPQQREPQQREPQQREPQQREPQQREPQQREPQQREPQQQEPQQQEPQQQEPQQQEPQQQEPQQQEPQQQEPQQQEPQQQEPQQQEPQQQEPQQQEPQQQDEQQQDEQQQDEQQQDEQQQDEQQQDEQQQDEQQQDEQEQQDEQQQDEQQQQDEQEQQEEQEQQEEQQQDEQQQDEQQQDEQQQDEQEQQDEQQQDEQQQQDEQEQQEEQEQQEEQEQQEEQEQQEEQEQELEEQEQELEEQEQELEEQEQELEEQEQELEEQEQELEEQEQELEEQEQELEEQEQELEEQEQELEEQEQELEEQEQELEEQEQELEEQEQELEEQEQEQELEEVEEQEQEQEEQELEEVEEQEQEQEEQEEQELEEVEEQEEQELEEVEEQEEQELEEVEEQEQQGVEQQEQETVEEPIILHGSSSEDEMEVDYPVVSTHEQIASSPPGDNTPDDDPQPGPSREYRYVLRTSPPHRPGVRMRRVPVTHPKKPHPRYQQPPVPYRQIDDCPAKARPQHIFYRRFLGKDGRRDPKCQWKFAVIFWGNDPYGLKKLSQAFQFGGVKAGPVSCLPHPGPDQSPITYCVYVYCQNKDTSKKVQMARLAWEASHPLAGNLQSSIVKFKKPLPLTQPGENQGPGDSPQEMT
# Vif A3G: inhibitors of Vif binding to APOBEC3G peptide, primary screen, biochemical, TR-FRET, GST-Vif 1-94, biotin-A3G peptide, dose response retest (AID 1117319). TR-FRET GST-Vif / biotin-A3G peptide binding; higher % means a stronger effect; test concentration not given here; strong numbers were not always called active. inhibition, %; hits with a dose series show IC50 in µM. 0.57% of 260,000 active;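 active means above the screen mean plus three standard deviations and confirmed in dose response; inconclusive means results disagree or hit not tested in dose response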;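 further: Vif residues 1-94 fused to GST binding biotinylated APOBEC3G peptide 110-148; 0% = full assay without inhibitor and 100% = GST in place of GST-Vif; retest series ran down from 100 µM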
# Beta cell apopt: beta cell apoptosis inhibition | AID 435005 | protection from apoptosis, % (no concentration beside the values) | 0.8% of 300,000 active | INS-1E cytokine-induced death, ATP luminescence, 48 h; percent of positive-control rescue, neutral wells zero;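 active means all replicates at 75% or more, or half of them and the mean; inconclusive means half reach 75% but not the mean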;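 further: 0% = cytokine-treated negative control wells and 100% = positive control rescue; higher means more ATP so stronger rescue from cytokine killing; wells of about 40 µL received 100 nL stock; the first replicate is given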
# T cruzi inh: T. cruzi replication inhibition; T. cruzi beta-gal in NIH3T3, luminescence, 90 h; inhibition, % (test concentration not listed); 1.4% of 300,000 active; AID 1885;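 active means mean inhibition across valid replicates above about 55%, limit read from the data; inconclusive means mean below that limit but half or more replicates reach it; inactive means mean below it, under half of replicates reach it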;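 further: signal also drops with host cell toxicity which is not excluded here; 0% = plate median of DMSO wells and 100% = zero luminescence signal; higher percent means less beta-gal luminescence so fewer parasites; stock transfer was 50 nL into about 50 µL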
# The depositor's hits bear a star; ? = inconclusive; · = not tested or not shown; & = joins results of further samples.
SMILES,AF4-AF9 inh,Calb FLC,Bfl-1 A1 inh,RanGTP-Impb inh,LANA-H2B inh,Vif A3G,Beta cell apopt,T cruzi inh
O=C(Nc1ccccc1)OCCOc1cccc(Br)c1,-2.1,-8,-1.4,-1.5,-8.3,·,-1,-8
O=C(COc1ccccc1)NC1CCS(=O)(=O)C1 (stereo not drawn),0.6,-6,-1.6,-1.6,-1.1,2%,-5,-6
COc1ccc(CNC(=O)C2CCCN(S(=O)(=O)c3c(C)nn(C)c3C)C2)cc1 (stereo not drawn),-2.0,-7,0.4,1.3,1.2,144%,-1,6
Nc1nonc1C(=O)N/N=C/c1cccc([N+](=O)[O-])c1,0.6,-11,-2.4,-1.3,-4.7,21%,-2,-8
COC(=O)C(C)Oc1ccc(=O)[nH]n1 (stereo not drawn),·,-4,-0.2,5.5,1.4,12%,1,-16
Nc1c(-c2ccccc2)cnc2c(-c3ccccc3)cnn12,-1.3,-37,-6.2,-3.6,-9.4,·,1,-4
COc1cccc(CN2CCN(Cc3ccc(C#CC(C)(C)O)s3)CC2CCO)c1 (stereo not drawn),-1.2,-9,-0.5,3.9,0.1,2%,1,10
COc1ccc(Cl)cc1C(=O)NCCCN1CCOCC1,1.6,-10,-0.9,0.3,1.1,2%,4,-2
Cc1ccc(S(=O)(=O)N2CCN(C(=O)CCN3C(=O)c4ccccc4C3=O)CC2)cc1C,8.3,-11,0.7,0.2,-1.8,8%,-3,-3
COc1ccc(N(CC(=O)O)S(=O)(=O)c2c(C)n[nH]c2C)cc1,·,-17,0.5,3.2,-3.0,23%,-2,2
CCN(CC)c1ccc(/C=C/C(=O)c2ccc(Br)cc2)cc1,·,2,0.4,-331,-20,·,-5,16
CC(C)c1ccc(S(=O)(=O)N2CCN(CC(O)CN3CCOCC3)CC2)cc1 (stereo not drawn),0.4,·,?,·,3.4,·,2,·
Cc1nc(NS(=O)(=O)c2ccccc2)sc1NC(=O)Nc1ccccc1,-2.5,4,0.5,13,0.7,4%,·,-12
Fc1ccc(Oc2nccc(-c3ccc(Cl)cc3)n2)cc1,·,-22,0.4,2.9,5.6,-2%,-2,10
CC(=O)NC(Cc1cnc[nH]1)C(=O)O (stereo not drawn),·,-3,0.2,5.0,-4.0,-4%,-2,-1
COc1ccccc1N1CCN(C(=O)CCNS(=O)(=O)c2ccc(Br)s2)CC1,·,4,1.4,1.4,-1.3,-6%&-3%,-2,15
Cc1cc(C)n(-c2ccc(C(=O)OCc3ccccc3)cc2)n1,-4.1,?,-0.7,-1.0,2.7,·,5,-6
CCn1nc(CC(C)C)cc1C(=O)N1CCCC(Nc2ccc(OC)cc2)C1 (stereo not drawn),5.3,2,0.2,3.5,13,·,2,11
COc1ccc(-c2[nH]ncc2CN2CCC(OCc3cccnc3)CC2)c(F)c1,-2.6,-9,0.5,-0.3,-6.4,-2%,-5,-1
COc1ccc(S(=O)(=O)N(C)c2ccc(C(=O)Nc3ccccc3C(=O)N3CCOCC3)cc2)cc1OC,1.1,-4,-1.5,-1.2,-4.5,·,1,-9
COc1ccc(C2CC(c3ccccc3)n3nnnc3N2)cc1 (stereo not drawn),·,10,-1.1,-2.2,-0.5,-6%,-2,-7
CC(=O)N1c2ccc(S(=O)(=O)N3CCCC(C(=O)N4CCC(C)CC4)C3)cc2CC1C (stereo not drawn),0.5,-16,0.1,-2.4,-0.6,·,1,4
COc1ccc(S(=O)(=O)N(C)CC(=O)NCc2ccco2)cc1OC,-15,2,1.4,0.6,2.2,·,-2,-8
CCN(CC)C(=O)C(C)N(C#N)c1nc(C)cc(C)n1 (stereo not drawn),·,1,0.4,1.1,-3.5,11%,1,-3
Cc1ccc(S(=O)(=O)N(CC(=O)N2CCOCC2)c2ccc(C(C)C)cc2)cc1,-0.1,-4,-0.3,4.1,-9.1,29%,·,-9
COc1cc(CNc2ncn[nH]2)ccc1OCc1ccccc1C,-0.4,-18,-2.9,-1.9,0.4,-3%,-6,1
O=C(CCN1C(=O)C2C3C=CC(C3)C2C1=O)N1CCN(c2ccc(F)cc2)CC1 (stereo not drawn),·,·,-0.7,·,-3.6,12%,1,·
CN1[C@@H]2CCC[C@H]1CC(NC(=O)c1nn(C)c3ccccc13)C2 (stereo partly drawn),-2.9,·,-0.2,·,-1.6,·,-8,·
O=C(CSc1ccc(Br)cc1)NCC1CCCO1 (stereo not drawn),-1.1,-9,-0.1,-2.5,0.7,·,-5,2
Cc1ccc(C)c(Cn2cnc3c(oc4ccccc43)c2=O)c1,-2.5,-1,0.1,-1.7,1.4,1%,0,-9
C/C(=C\c1ccco1)C1C(C#N)=C(N)OC2=C1C(=O)CC(C)(C)C2 (stereo not drawn),·,4,1.0,0.4,2.6,27%,1,-11
N#CCC(=O)Nc1ccc(C(=O)OC(C(=O)Nc2cc(C(F)(F)F)ccc2Cl)c2ccccc2)cc1 (stereo not drawn),?,·,0.1,0.9,0.8,6%,-6,3
O=C(CSc1cccc2cccnc12)N/N=C/c1cccc(O)c1,2.3,1,0.3,-5.9,-0.3,11%,2,-18
COCCN(C(=O)Cn1c(C(F)(F)F)nc2ccccc21)c1c(N)n(Cc2ccccc2)c(=O)[nH]c1=O,-2.8,7,1.7,0.6,3.0,·,-10,-11
OC(COCc1ccccc1F)CN1CCCCC1 (stereo not drawn),-5.5,1,-0.2,2.5,1.2,·,-4,-8
CCCOc1ccc(C2(C(=O)O)CCCC2)cc1,·,7,0.0,?,1.7,18%,·,7
CCOC(=O)c1cc2cc(OCc3ccccc3)ccc2nc1C,-4.6,22,0.2,-2.3,0.6,-3%,-1,25
CC(C)(C)[C@@H]1C=C(C(=O)N2CCN(Cc3ccccc3)CC2)O[C@H](OCc2ccc(CO)cc2)C1,3.5&3.5,-9,0.0,?,1.7,20%,3,16
CCN(c1ccccc1)S(=O)(=O)c1cc(NC(=O)CN2CCN(C)CC2)ccc1Cl,6.0,·,1.8,·,-1.8,2%,-6,·
COc1ccc(CNC(=O)CCC(=O)c2ccccc2)cc1,2.7,·,-0.6,·,-1.2,-1%,-7,·
COc1ccc(NC(=O)CSc2nnc3ccc(-c4cccnc4)nn23)cc1,-1.7,-3,-0.7,-1.0,-5.7,-3%,-4,-3
CC(C)CC(=O)Nc1ccc(OCC(=O)O)cc1,·,21,1.8,2.4,1.2,6%,-3,-9
COc1ccc(OC)c(CNC(=O)CCC(=O)N2Cc3cccc(OC)c3Oc3ncccc32)c1,-0.5,-9,1.5,2.3,0.6,·,0,-4
N#Cc1cnc2c(-c3ccccc3)c(-c3ccccc3)nn2c1N,-0.7,-6,-0.5,0.2,0.3,32%,-2,10
CCOC(=O)c1ccccc1NC1OC(=O)c2ccccc21 (stereo not drawn),·,7,-0.4,-1.5,-1.0,-6%,2,-12
CSCCC(NS(=O)(=O)c1ccc2c(c1)oc(=O)n2C)C(=O)NC1CCN(Cc2ccccc2)CC1 (stereo not drawn),-3.1,2,0.1,-2.4,3.6,1%,1,2
COc1ccc(-c2occ(C(=O)O)c2C(=O)O)cc1,·,2,-3.1,-2.1,-0.9,1%,-8,3
O=C(N/C(=C/c1ccc(Cl)cc1)c1nc2ccccc2[nH]1)c1ccco1,·,2,0.2,1.1,-1.7,>100µM*,2,-15
C=CCNC(=S)N1CCN(CCN=CC2=C(O)CC(c3cccs3)CC2=O)CC1 (stereo not drawn),·,-2,0.1,1.6,1.5,5%,-7,-4
CCOc1ccc(NC(=O)c2cc(S(=O)(=O)N3CCCCC3)c[nH]2)cc1,-7.4,-1,0.0,-1.3,-4.9,·,2,-7
# (continued)
SMILES,AF4-AF9 inh,Calb FLC,Bfl-1 A1 inh,RanGTP-Impb inh,LANA-H2B inh,Vif A3G,Beta cell apopt,T cruzi inh
Cc1cccc(NC(=O)c2cc(Cl)sc2Cl)c1C,-3.2,1,-0.2,5.6,3.1,·,-5,-8
COc1cccc(Nc2nc(-c3sc(NC(=O)c4ccco4)nc3C)cs2)c1,4.5,25,-1.8,6.7,-3.9,12%,10,0
CCc1ccc(Nc2nc(N)nc(CSc3nnnn3-c3ccccc3)n2)cc1,·,-4,-0.7,1.3,-1.2,0%,-8,-1
Cc1ccc(-n2[nH]c3c4c(ccc3c2=O)C(=O)c2ccccc2C4=O)cc1,-0.4,-8,1.5,1.4,3.6,·,2,-12
CNS(=O)(=O)c1cc(N(C)S(=O)(=O)c2ccc(C)cc2)c(C)cc1C,-1.3,-32,0.3,?,2.6,2%,·,-6
O=C(O/N=C/C1=C(Cl)c2ccccc2CC1)c1ccc(F)cc1,·,13,-0.2,0.1,4.0,0%,-14,-12
COc1ccc(S(=O)(=O)N(C)C)cc1NC(=O)CSc1nncs1,1.3,-5,0.0,4.3,0.9,1%,-3,-12
COC(=O)c1sc(NC(=O)COc2ccccc2OC)nc1C,·,30,0.3,6.0,0.4,-10%,-4,-21
CC(C)Cc1ccc(/C=C/C(=O)NC2CC2)cc1,-0.2,-6,-1.6,10,4.9,-4%,-5,6
O=C(N/N=C/c1cn(Cc2ccccc2)c2ccccc12)c1cccnc1,2.7,-16,2.2,0.1,2.3,-6%,8,-26

# Shown as a hit in Vif A3G (from the list above):
SMILES | AF4-AF9 inh | RanGTP-Impb inh | LANA-H2B inh | Vif A3G
O=C(N/C(=C/c1ccc(Cl)cc1)c1nc2ccccc2[nH]1)c1ccco1 | · | 1.1 | -1.7 | >100µM*

# Other entries.
SMILES,AF4-AF9 inh,Calb FLC,Bfl-1 A1 inh,RanGTP-Impb inh,LANA-H2B inh,Vif A3G,Beta cell apopt,T cruzi inh
CC(=O)c1ccc(N2CCN(C(=O)C3CCN(C(=O)Nc4ccccc4)CC3)CC2)cc1,-1.6,·,-0.5,·,7.5,·,3,·
CCCc1nc(SCC(=O)NNC(=O)C2CCCCC2)c2ccccc2n1,·,-1,0.2,-4.1,5.2,5%,-6,11
CCOC(=O)c1[nH]c2ccc(OC)cc2c1NC(=O)OC,·,10,-0.3,4.7,0.4,-3%,-2,-9
CCOC(=O)C1CCCN(C(=O)c2ccc(CNc3c(N4CCC(C)CC4)c(=O)c3=O)cc2)C1 (stereo not drawn),1.5,11,-0.1,-1.0,-0.8,31µM*,-4,10
CC1(C)Cc2c(sc3nc(C4CCCCC4)n(N)c(=O)c23)CO1,1.6,16,0.1,5.1,-13,·,2,-11
COCCN(C(=O)c1csnn1)C(C(=O)NC1CCCCC1)c1ccc(Cl)cc1 (stereo not drawn),-0.3,9,0.2,2.7,5.6,·,-5,2
CCn1c(-c2ccc(F)cc2)n[nH]c1=S,·,3,0.4,-2.3,-3.8,1%,-10,-20
COc1ccc(-n2c(SCc3ccccn3)nc3c(c2=O)SCC3)cc1OC,0.4,7,0.1,?,0.2,-2%,-2,13
CCOC(=O)CSC1=NC(=O)/C(=C\c2ccc(OC(C)=O)cc2)S1,·,18,0.7,2.3,-0.5,17%,-4,7
Cc1ccc(CN(C(=O)c2ccc([N+](=O)[O-])cc2)C2CCS(=O)(=O)C2)o1 (stereo not drawn),0.7,5,-0.6,0.6,2.6,3%,1,-3
CCN(CC)c1nc2c(c(=O)n(C)c(=O)n2C)n1CC(=O)c1ccccc1,-0.6,-6,0.6,0.8,-2.7,·,-2,2
